Screens as filed in PubChem BioAssay.
TAR Tat displ = HIV-1 TAR-Tat binding disruption; HIV-1 TAR RNA, Tat peptide displacement FRET; active compounds read high; 0.6% of 100,000 active; z-score (test concentration not listed);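 further: score is relative to mean and SD of negative controls; some compounds called inactive have numbers as strong as hits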
CDC25B CDK2 inh = human CDC25B-CDK2/CyclinA binding inhibition; z-score (concentration not given with the values); HTRF CDC25B-CDK2/CyclinA binding, anti-His/anti-Flag; active compounds read high; 0.72% of 94,000 active; P30305+P24941;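 further: score is relative to mean and SD of negative controls; strong numbers were not always called active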
* = called active by the depositor; nt = not tested or not shown.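 How the source made its calls: active means z-score from 3 up in half or more of its runs; inactive means the rest.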

Values run as follows: TAR Tat displ | CDC25B CDK2 inh
> O=c1c2cccnc2nc(SCc2cccc(F)c2)n1Cc1ccccc1
  -1 | -0.97
> CS(=O)(=O)N1CCC(Oc2ccc(-n3cnnn3)cc2)CC1
  0.08 | 0.38
> CN(Cc1ccco1)C(=O)Cn1c(=O)oc2cc(S(=O)(=O)NCc3ccccc3)ccc21
  0.77 | -1.5
> N/C(=N\OCc1noc(-c2ccsc2)n1)c1ccc(C(F)(F)F)cc1
  nt | 1.5
> O=C(NCCN1CCCC1)NC1COc2ccccc2C1 (configuration not stated)
  1.2 | nt
> COc1ccc(S(=O)(=O)Nc2cc(-c3cn4ccc(C)cc4n3)ccc2C)cc1C
  0.24 | 0.05
> CCOC(=O)C1CCCN(c2c(NC3CCC(C)CC3)c(=O)c2=O)C1 (configuration not stated)
  nt | 0.11
> CCc1nn(CC(=O)NCCCN2CCCC2)c(=O)c2cc3sc(C)cc3n12
  1.4 | 0.59
> Cc1ccc(Cc2nnc(-c3ccc(N)cc3)o2)cc1
  1.9 | nt
> CCN1CCCC1CNC(=O)c1cc(=O)nc2sc(N3CCOCC3)nn12 (configuration not stated)
  0.63 | nt
> Cc1ccc2oc3c(c(=O)c2c1)C(c1ccc(C(C)(C)C)cc1)N(CCCn1ccnc1)C3=O (configuration not stated)
  0.79 | 0.34
> Cn1c(=O)c2c(nc(SCCNS(=O)(=O)c3ccccc3)n2C)n(C)c1=O
  nt | -0.14
> CC(=O)c1c(C(F)(F)F)nc(=O)n(-c2ccccc2)c1C
  nt | -1.3
> CSc1ncc2c(=O)n(CC(=O)Nc3ccc(F)c(Cl)c3)cnc2n1
  1.4 | nt
> Cc1cccc(OCc2nc(-c3cccc(C)c3)no2)c1
  0.25 | 0.28
> CCC(O)(c1ccc(O)cc1)C(CN1CCOCC1)c1ccccc1 (configuration not stated)
  -1 | -2.6
> CCOC(=O)c1cc(CC)sc1NC(=O)c1ccc([N+](=O)[O-])o1
  nt | -0.53
> CC1(C)NC(=O)N(CC(O)COc2ccccc2Cl)C1=O (configuration not stated)
  1.5 | 0.68
> COC(=O)c1c(SCC(=O)Nc2cccc(SC)c2)[nH]c2ccccc2c1=O
  0.37 | nt
> CCCS(=O)(=O)c1c(S(=O)(=O)CCC)c2c(C)cccn2c1C(N)=O
  0.13 | -0.77
> CCc1ccc(-c2nc3ccccc3c(=O)o2)cc1
  -0.2 | -1.8
> Cn1nc(C(=O)NCCc2ccsc2)c2c1-c1ccccc1OC2
  1.1 | -1.6
> O=C(CSC(=S)N1CCCCC1)c1c(F)cccc1F
  nt | -1.3
> O=C(CN1C(=O)CCc2cc(Br)ccc21)NCCC1=CCCCC1
  2.4 | nt
> O=C(Nc1sc2c(c1C(=O)NCC1CCCO1)CCCC2)c1cc(-c2ccccc2)on1 (configuration not stated)
  0.96 | 0.3
> CCOC(=O)C1=C(C)NC2=C(C(=O)CC(C)(C)C2)C1c1ccc(N(C)C)cc1 (configuration not stated)
  2 | -1.7
> Cn1ncc(Br)c1N1C(=O)C=CC1=O
  nt | -0.84
> COC(=O)c1sc2cccc(F)c2c1S(=O)(=O)Nc1ccc(F)cc1F
  -0.53 | nt
> Cc1ccc(CN2CC34C=CC(O3)C(C(=O)NCc3ccc5c(c3)OCO5)C4C2=O)cc1 (configuration not stated)
  nt | 0.43
> Cc1cc(CNC(=O)NC2CCCC2)c(C)n1-c1ccc(Cl)cc1
  -2.9 | nt

Brought forward from above: 5 entries, followed by the next part.
Values run as follows: TAR Tat displ | CDC25B CDK2 inh
> CCOC(=O)C1=C(C)NC2=C(C(=O)CC(C)(C)C2)C1c1ccc(N(C)C)cc1 (configuration not stated)
  2 | -1.7
> Cn1ncc(Br)c1N1C(=O)C=CC1=O
  nt | -0.84
> COC(=O)c1sc2cccc(F)c2c1S(=O)(=O)Nc1ccc(F)cc1F
  -0.53 | nt
> Cc1ccc(CN2CC34C=CC(O3)C(C(=O)NCc3ccc5c(c3)OCO5)C4C2=O)cc1 (configuration not stated)
  nt | 0.43
> Cc1cc(CNC(=O)NC2CCCC2)c(C)n1-c1ccc(Cl)cc1
  -2.9 | nt
> CC1=C(C#N)C(c2ccc(-c3ccc(OC(F)(F)F)cc3)o2)C2=C(CCCC2=O)N1 (configuration not stated)
  nt | 0.57
> CCOC(=O)c1c(C)oc2nc(C)nc(NC(C)CCc3ccco3)c12 (configuration not stated)
  0.11 | nt
> Cc1ccc(SC(c2ccco2)C2CCCCC2=O)cc1 (configuration not stated)
  nt | 2.1
> COc1ccc(C(=O)Nc2nc(-c3ccc(C)c(Cl)c3)c(C)s2)cc1
  nt | 0.41
> O=C(c1ccc(Br)cc1)N1CCN(C2=NS(=O)(=O)c3ccccc32)CC1
  nt | 0.29
> C=CCn1c(O)c(C2=Nc3ccccc3SC(c3ccc(O)c(OC)c3)C2)c(=O)[nH]c1=O (configuration not stated)
  -0.2 | 0.89
> COc1cccc(NC(=O)N2Cc3ccccc3Oc3ncccc32)c1
  2.4 | -0.98
> CC(C)c1nn2c(=O)cc(CSc3n[nH]c(-c4ccccc4)n3)nc2s1
  0.15 | nt
> O=C(c1ccc(N2CCCS2(=O)=O)cc1)N1CCCC1
  0.78 | nt
> CCCN1CCN(c2nc(N3CCN(C)CC3)c3cnn(C)c3n2)CC1
  -1.3 | nt
> CCOc1cc(C2C(C#N)=C(N)Oc3n[nH]c(C)c32)ccc1OCc1ccccc1 (configuration not stated)
  -0.95 | -1.5
> Cc1ccc(-c2nnc(SCc3cc(=O)n4c(C)csc4n3)o2)cc1
  2.9 | -1
> O=C(Nc1nnc2n1CCS2)c1ccccc1Cl
  0.63 | nt
> CC(C)C1Cc2c(sc3nc(SCC(=O)O)n(-c4ccccc4)c(=O)c23)CO1 (configuration not stated)
  nt | -3.3
> O=C(CC1(O)C(=O)Nc2ccc(Cl)cc21)c1ccc(F)cc1 (configuration not stated)
  nt | -1.4
> COc1cc2nc(-n3nc(C)cc3C)n3nc(-c4cccnc4)nc3c2cc1OC
  nt | -0.56
> Cc1cc(S(=O)(=O)Oc2ccccc2Oc2ccc(C(F)(F)F)cc2[N+](=O)[O-])cc(C)c1F
  nt | -2
> Cc1ccc(C(=O)Oc2ccc3oc(=O)sc3c2)cc1
  0.5 | -1.5
> Cc1c(Cl)cccc1-c1ccc(/C=N/N=C2\NC(=O)CS2)o1
  nt | -2.5
> CC1(C)Cc2ccccc2-c2nnc(-c3ccc(O)cc3)n21
  1.6 | 0.85
> C[C@@H]1C[C@H](C)CN([C@H]2CS(=O)(=O)C[C@@H]2S(=O)(=O)c2ccc(Cl)cc2)C1
  0.47 | -2.6
> CN(NS(=O)(=O)c1ccccc1C(F)(F)F)c1cnc2ccccc2n1
  nt | -2.4
> Cc1ccc(Nc2c(-c3ccncc3)nc3ccc(Cl)cn23)cc1
  nt | -5.2
> COCCN1C(=O)c2oc3ccc(F)cc3c(=O)c2C1c1cccc(O)c1 (configuration not stated)
  1.4 | -1.6
> CCN(CC)c1ccc(NC(=O)c2cc3c(=O)n4cccc(C)c4nc3n2C)c(C)c1
  1.5 | nt
> C=CCN(C(=O)Cn1c(=O)oc2cc(S(=O)(=O)N3CCCCCC3)ccc21)c1ccccc1
  nt | -0.9
> CCCC1Cc2[nH]c(=O)c(C#N)cc2CO1 (configuration not stated)
  0.44 | -1.3
> Cc1ccc(S(=O)(=O)NC(C)c2nc(-c3ccc(NS(C)(=O)=O)cc3)no2)cc1 (configuration not stated)
  0.78 | nt
> O=c1[nH]c(-c2ccccc2F)nc2c1Cc1cc(Cl)ccc1O2
  -0.68 | -0.92
> CN(C)S(=O)(=O)c1ccc2c(c1)ncn2CCCC(=O)NCc1ccco1
  -0.32 | nt

Next records.
Molecule | TAR Tat displ | CDC25B CDK2 inh
CC(=O)Oc1ccc2occ(C(=O)c3ccc(Cl)cc3)c2c1 | 0.29 | -0.87
Cc1ccc(-n2nnnc2SCC(=O)N2CCOCC2)c(C)c1 | nt | -2
N=C(N)c1ccc(N)cc1 | nt | -1.2
CC(C)NC(=O)c1ccc2c(c1)nc1n2CCOC1 | 0.43 | nt
O=C(N1CCCc2ccccc21)C1(c2cccs2)CCOCC1 | 1.5 | nt
O=c1c2nccnc2nc(SCc2ccccc2F)n1Cc1ccc(F)cc1 | 1.8 | nt
Cc1cccc2nc(CSc3nncn3-c3ccccc3)cn12 | -0.6 | -0.65
NNC(=O)c1cc(-c2ccc3ccccc3c2)n[nH]1 | nt | -0.99
CCOC(=O)C1CCN(C(=O)Cn2c(C(=O)OC)ccc2-c2ccco2)CC1 | 1.3 | nt
Cn1c(=O)c(=O)n(C)c2cc(S(=O)(=O)CCC(=O)N3CCOc4ccccc43)ccc21 | 1 | nt
COC(=O)C1=C(C(=O)OC)SC(=C2C(=S)C(C)(C)N3C(=O)C(=O)c4c(C)ccc2c43)S1 | 1.2 | -3.6
O=C1c2[nH]nc(-c3ccccc3O)c2C(c2cccc(Cl)c2)N1CCCO (configuration not stated) | -0.52 | -0.67
c1cc(-c2ccncc2)ccn1 | nt | -2.1
CCC(C)(C)Nc1c(-c2ccc(C)c(C)c2)c(=O)c1=O | -1.6 | nt
O=C1OC2(c3ccc(F)cc3)C(OC(=O)C23CCCC3)C12CCCC2 (configuration not stated) | nt | -1.3
COc1ccc(CN2CSC3=C(C#N)C(c4ccc(F)cc4)CC(=O)N3C2)cc1 (configuration not stated) | 0.92 | 3.6*
CCN(CC)S(=O)(=O)c1ccc(C(=O)Nc2nc3ccc4sc(C)nc4c3s2)cc1 | nt | -0.86
CCCN1C(=O)CC(C)S(=O)(=O)c2ccccc21 (configuration not stated) | 2.7 | -1.5
CC(C)(C)CC(=O)NCC(c1cccs1)S(=O)(=O)c1cccs1 (configuration not stated) | 1.9 | nt
CCOc1ccccc1-c1noc(CSc2nnc(-c3ccc(Cl)cc3)n2C)n1 | -1.1 | -1.9
COc1ccc(CCNS(=O)(=O)c2cc(-c3onc(C)c3C)ccc2C)cc1OC | 0.97 | nt
CCOC(=O)C1C(=O)Oc2ccc(Br)cc2C1C1(C(=O)OC)CCCC1 (configuration not stated) | nt | -0.08
Cc1c(NC(=O)c2sc3ccccc3c2Cl)cccc1-c1nc2ccccc2s1 | nt | -1
O/N=C1/C2CC3C1C14CC(C2/C1=N\O)C34 (configuration not stated) | nt | -1.4
COc1cccc(OCc2nc(-c3cccc(OC)c3)no2)c1 | 0.13 | -0.56

Record cards, as listed above. Order of screens: TAR Tat displ | CDC25B CDK2 inh
CCC(C)(C)Nc1c(-c2ccc(C)c(C)c2)c(=O)c1=O is entered as -1.6 | nt
Cc1c(NC(=O)c2sc3ccccc3c2Cl)cccc1-c1nc2ccccc2s1 is entered as nt | -1
CC(C)(C)CC(=O)NCC(c1cccs1)S(=O)(=O)c1cccs1 (configuration not stated) is entered as 1.9 | nt
Cc1ccc(-n2nnnc2SCC(=O)N2CCOCC2)c(C)c1 is entered as nt | -2
CCOC(=O)C1C(=O)Oc2ccc(Br)cc2C1C1(C(=O)OC)CCCC1 (configuration not stated) is entered as nt | -0.08

Other results follow:
Molecule | TAR Tat displ | CDC25B CDK2 inh
COc1ccc(Cl)cc1NS(=O)(=O)N(C)C | 0.7 | -0.89
Cc1cc(CN2C(=O)NC(C)(C)C2=O)c(CN2C(=O)NC(C)(C)C2=O)cc1C | nt | 0.66
O=c1[nH]c(=O)n(-c2ccccc2)c2c1CN(C1CCCCC1)CN2 | 1.8 | -1.9
Cc1noc(C)c1C(=O)Nc1cc(C(F)(F)F)ccc1OCC(F)(F)F | nt | -0.62
Cc1nn(-c2nc3ccccc3n2C)c2c1C(c1ccsc1)CC(=O)N2 (configuration not stated) | 2.4 | nt
Cc1ccsc1CNC(=O)CSCC(=O)O | nt | 0.1
COc1ccc(-n2c(C)cc(CNS(=O)(=O)c3ccc(OC)c(Cl)c3)c2C)cc1 | 0.31 | nt
CCC(C)S(=O)(=O)c1oc(-c2ccc(F)cc2)nc1S(=O)(=O)c1ccccc1 (configuration not stated) | -0.51 | -4.8
COc1cc(C2OC(c3ccc(Br)cc3)=NN2C(C)=O)ccc1OC(C)=O (configuration not stated) | 1.6 | nt
CN1C(=O)c2ccccc2Sc2ccc(NC(=O)NCc3ccc4c(c3)OCO4)cc21 | 0.23 | -0.05
CC1(C)Cc2nc3sc4c(=O)n(CC(=O)N5CCOCC5)cnc4c3cc2CO1 | 0.18 | nt
Cc1ccc(N2C(=O)CN(Cc3cccs3)C2=S)cc1C | nt | -0.81
COc1ccc(OCC(=O)OCc2cc(=O)n3nc(-c4cccs4)sc3n2)cc1 | -1.8 | nt
CCCCNc1nc(Nc2ccc(OC)cc2)c2cnn(C)c2n1 | 0.16 | nt
O=C(NCCc1ccccn1)c1cn(S(=O)(=O)c2ccccc2)c2ccccc12 | nt | -1.9
Cc1nc2sc(C(c3ccc(Cl)cc3)N3CCC4(CC3)OCCO4)c(O)n2n1 (configuration not stated) | nt | -2
CCn1cc(S(=O)(=O)c2cccc(Cl)c2)c(=O)c2cc(F)c(N3CCCC(C)C3)cc21 (configuration not stated) | -0.34 | nt
Cc1cccc(N2C(N)=NC(N)=NC23CCCCC3)c1 | nt | 0.39
CCN(CC)c1ncnc2c1sc1nc3c(cc12)COC(C)(C)C3 | 1.6 | -2.2
CN1CCN(C2CCCCC2NS(=O)(=O)c2ccc(Cl)cc2)CC1 (configuration not stated) | 0.42 | -1.9
O=C(Nc1nccs1)C1CCCN1S(=O)(=O)c1cccc2cccnc12 (configuration not stated) | 0.36 | -1.2
Cn1c(COc2ccc(C(C)(C)C)cc2)nc2ccccc21 | nt | 0.41
O=C1Nc2ccccc2C1Cc1ccc(Cl)cc1 (configuration not stated) | 0.07 | 1.4
Cc1nc2ccc(S(=O)(=O)NC(C(=O)N3CCC(C)CC3)C(C)C)cc2s1 (configuration not stated) | 0.14 | -0.25
CS(=O)(=O)Nc1ccc(-c2noc(COc3ccccc3)n2)cc1 | 0.83 | nt
CSc1ccc(C2CC(=O)Nc3c2c(C)nn3-c2nc3ccccc3s2)cc1 (configuration not stated) | 1.1 | -0.18
O=C(Cn1nc2c3ccccc3n(Cc3ccccc3)cc-2c1=O)NCc1ccc(F)cc1 | -1 | nt
Cc1[nH]n(C)c(=O)c1N=Nc1ccc2c(c1)COCO2 | nt | -2.2
CCOC(=O)Cn1c(=O)oc2cc(S(=O)(=O)NCC3CCCO3)ccc21 (configuration not stated) | -1.7 | -1.9
